Screening results deposited in PubChem BioAssay by National Center for Advancing Translational Sciences (NCATS).
gsp antag – gsp mutant antagonism. gsp-mutant cells, cAMP HTRF, 30 min; control for the full effect not named in the record. Potency, µM (highest dose often 76.9 µM), inactives show top-dose activity change, negative = inhibition, actives largely listed as inhibitors. 0.4% of 340,000 active. AID 624288; active = falling curve of any shape with a large fitted effect; inconclusive = falling curve, mostly with a smaller effect; inactive = flat or rising curve; cell line not stated here;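 note: intracellular cAMP measured with PDE inhibitor Ro 20-1724 present during compound exposure; potency is the fitted concentration of half-maximal effect; % is set by controls: 0 for no effect and ±100 for the full control effect; nearly all actives have a fitted effect of over 65% in size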
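HTRF cAMP measurement after 30 min RT detection following 30 min, 37C compound treatment alongside […] (added as 300 uM solution) in G418-selected cells seeded at 2000/well and grown 16–24 h.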
ClpP mod – qHTS Assay for Activators of ClpP. 1.9% of 340,000 active. Potency, µM (doses to about 57.5 µM), for inactives: at the top dose activity change, negative = active. ATP-dependent Clp protease proteolytic subunit (Bacillus subtilis (strain 168)), P80244. AID 651965, 2013. purified B. subtilis ClpP, FRET peptide cleavage, 20 min; active = well fitted falling curve with a large enough effect; inconclusive = small, poorly fitted or top-dose-only effect; inactive = no such curve, though single readings can be large or run the other way; note: potency is the fitted concentration of half-maximal effect; the source files actives as falling curves though it sought activators and does not explain the sign; nearly all actives have a fitted effect of over 65% in size; many hits overshoot -100%
Target sequence (P80244 whole entry, looked up): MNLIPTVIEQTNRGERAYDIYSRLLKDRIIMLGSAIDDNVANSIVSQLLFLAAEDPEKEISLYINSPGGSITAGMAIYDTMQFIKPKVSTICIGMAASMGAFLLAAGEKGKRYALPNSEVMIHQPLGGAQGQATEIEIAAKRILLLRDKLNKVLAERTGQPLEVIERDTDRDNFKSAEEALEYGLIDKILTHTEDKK
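Buffer: 100 mM Tris/HCl pH8, 100 mM KCl, 0.05% low protease BSA, 2.5% glycerol, 0.01% Tween-20. ClpP 10 microg/mL final; 20 min RT; delta FRET normalized to ADEP and DMSO controls.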
gsp ag – agonists of gsp mutant (McCune-Albright syndrome). gsp mutant cells, cAMP HTRF, 30 min; control for the full effect not named in the record. Potency, µM (titrated, usually from 76.9 µM), without a hit: at the highest dose activation (cAMP increase), most hits filed as activators. 0.13% of 340,000 active; active = well fitted activation curve with a large enough effect; inconclusive = small, poorly fitted or top-dose-only effect, or another doubt; inactive = no such curve, though single readings can be large or run the other way; cell line not stated here;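 note: phosphodiesterase inhibitor Ro 20-1724 added with compounds to block cAMP breakdown; potency is the fitted concentration of half-maximal effect; nearly all actives have a fitted effect of over 60% in size; about a fifth of the inactives were tested at one dose only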
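Cells stably selected in G418 were plated at 2000/well, grown 16-24 hr, then given compounds in DMSO with the PDE inhibitor […] (300 uM solution added) for 30 min at 37C; cAMP was read by HTRF.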
Menin-MLL FL inh – menin-MLL binding inhibition, fluorescein peptide | Fluorescence polarization, fluorescein-MLL peptide displacement from menin | 290,000 tested, under 10 active | FP activity change, % at 61.4 µM; inconclusive = falling polarisation curve, or a change in total fluorescence; inactive = total fluorescence flat and polarisation flat or rising; no compound was filed as active; the % refers to the polarisation; negative = inhibition;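 note: % of control where 0% means no effect; inhibitors lower the polarisation; unlabelled MLL peptide was the positive control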
CtBP-E1A inh – inhibitors of CtBP/E1A interaction; AlphaScreen GST-E1A/His-CtBP binding, 1536-well; stronger effect = lower value; control for the full effect not named in the record; 0.49% of 340,000 active; activity change, % (no concentration beside the values); AID 651724; in the data active means activity change below about -65%; inconclusive means about -30% to -65%; inactive means above about -30%; note: % is set by controls: 0 for no effect and ±100 for the full control effect; compound concentration not given in the record
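AlphaScreen with 125 nM GST-E1A and 125 nM His-CtBP (5X stocks) in Tris pH 8.0, 300 mM NaCl, BSA, Tween 20, TCEP. Compounds preincubated 2 h at 37 deg C, then glutathione donor/nickel acceptor beads added for 1 h at 37 deg C in dark.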
Sfp PPTase inh – blocks B. subtilis Sfp PPTase activity. Biochemical Sfp PPTase activity, qHTS. Q9F4F7. 3.5% of 310,000 active. AID 1490. Potency, µM, for inactives: max response, negative = inhibition, usual class: inhibitors; active = well fitted inhibition curve with a large enough effect; inconclusive = small, poorly fitted or top-dose-only effect, or another doubt; inactive = no such curve, though single readings can be large or run the other way;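 note: the enzyme is Sfp with the accession as filed and its product quenches rhodamine fluorescence; potency is the fitted concentration of half-maximal effect; 0% = enzyme reaction without inhibitor and -100% = no enzyme wells; top concentration of the series not given in the record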
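Buffer: 50 mM Hepes-Na pH 7.6, 10 mM MgCl2, 0.01% Nonidet P-40, 0.01% BSA. Enzyme 15 nM, pre-exposed to compound 15 min; substrates then added and fluorescence change tracked over 30 min.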
TRPV1 PAM – enhances activation of the human vanilloid receptor TRPV1; Q8NER1; potentiation, % at 8.33 µM; TRPV1-expressing cells, Fluo-8 calcium influx, capsaicin EC20 potentiation; host cell line not named in the record; control for the full effect not named in the record; 0.02% of 320,000 active; AID 540277; active means potentiation above 80%; inconclusive means 30% to 80%; inactive means below 30%; note: 0% is about no effect
Target sequence (Q8NER1 whole entry, looked up): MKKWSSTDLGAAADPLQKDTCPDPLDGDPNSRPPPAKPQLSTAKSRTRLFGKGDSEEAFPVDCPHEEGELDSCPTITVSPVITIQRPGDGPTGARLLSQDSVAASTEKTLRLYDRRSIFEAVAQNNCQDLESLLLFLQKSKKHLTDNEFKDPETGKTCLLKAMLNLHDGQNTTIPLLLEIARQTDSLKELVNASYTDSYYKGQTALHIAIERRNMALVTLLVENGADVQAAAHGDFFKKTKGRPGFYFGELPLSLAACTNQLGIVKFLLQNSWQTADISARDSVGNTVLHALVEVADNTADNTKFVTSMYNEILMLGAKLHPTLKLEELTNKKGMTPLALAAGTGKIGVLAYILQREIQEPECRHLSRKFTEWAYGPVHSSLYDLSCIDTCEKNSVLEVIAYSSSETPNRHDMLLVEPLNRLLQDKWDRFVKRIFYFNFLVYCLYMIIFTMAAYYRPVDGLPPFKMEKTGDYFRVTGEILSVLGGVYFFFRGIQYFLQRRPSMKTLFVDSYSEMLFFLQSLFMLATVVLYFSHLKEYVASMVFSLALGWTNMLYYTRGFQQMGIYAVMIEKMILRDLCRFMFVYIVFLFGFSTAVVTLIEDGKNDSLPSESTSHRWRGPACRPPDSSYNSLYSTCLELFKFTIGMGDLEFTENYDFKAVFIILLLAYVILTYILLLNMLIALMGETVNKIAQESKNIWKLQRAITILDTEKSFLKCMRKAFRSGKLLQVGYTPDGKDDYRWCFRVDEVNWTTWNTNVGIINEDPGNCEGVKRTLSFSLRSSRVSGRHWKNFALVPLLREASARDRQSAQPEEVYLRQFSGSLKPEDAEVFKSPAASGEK
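TRPV1-expressing cells were cultured overnight at 35.5C and loaded with Fluo-8 calcium dye for 40 to 90 min at room temperature. After a 10 s baseline, compound was added and calcium influx was read kinetically for 3 min (ex 480/em 520 nm).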
Active calls of the source: *; u = inconclusive; x = no result given; [ ] = another dose, or the depositor's remark.

Results follow in this order: gsp antag | ClpP mod | gsp ag | Menin-MLL FL inh | CtBP-E1A inh | Sfp PPTase inh | TRPV1 PAM
CC1=CCC(C(=O)O)C(C(=O)Nc2cccnc2)C1 (stereo not given)
    -2.3% | 0.5% | -12.3%[15.4 µM] | 0.3 | -10.4 | 15.9% | -12.0
COc1ccc(C(=O)C=Cc2cccs2)c(O)c1
    -20.6% | x | 17.4% | x | -0.9 | x | x
Cc1ccc(N2CCN(S(=O)(=O)c3ccc(-n4cnnn4)cc3)CC2)c(C)c1
    4.3% | -0.2% | 4.4% | x | 7.1 | 5.2% | -13.4
Cc1cccc(C)c1NC(=S)NCCSc1ccc(Cl)cc1
    -12.1% | x | 0.9%[15.4 µM] | 4.8 | -1.1 | 23.9% | 6.8
C=CCSc1nccc(-c2cc(Cl)sc2Cl)n1
    5.2% | -3.2% | u | 1.0 | -8.0 | 8.4% | 1.6
COc1cc(-c2nc3cnccn3c2NC(C)(C)CC(C)(C)C)ccc1O
    -8.5% | u | 9.8% | 1.9 | -0.4 | -13.8% | 9.4
Cc1cc(C)c(NC(=O)CNC(=O)COC(=O)CN2C(=O)NC3(CCCC3)C2=O)c(C)c1
    11.4% | x | 0.1%[15.4 µM] | x | -13.2 | x | -3.5
CC(C)(C)OC(=O)NC(CO)c1cn([C@@H](Cc2cc3ccccc3[nH]2)C(=O)N2CCN(C(=O)OC(C)(C)C)CC2)nn1 (stereo not given in full)
    -4.5% | 1.5% | -53.6%[inhibitor] | -0.8 | -7.6 | 5.3% | -0.4
COc1ccc(-c2csc(Cc3nnc(N4CCOCC4)n3-c3ccccc3)n2)cc1
    -3.1% | 0.3% | -27.8% | -0.8 | -2.1 | -2.6% | 28.8
Nc1nc(N)c2cc(S(=O)(=O)c3ccc4ccccc4c3)ccc2n1
    x | u | 27.4% | x | -4.3 | x | x
CCOC(=O)CCCNC(=O)CCNC(=O)c1ccc(OCCC(C)C)cc1
    2.0% | -0.8% | 6.7%[15.4 µM] | 1.7 | 6.0 | 16.3% | -29.3
O=S(=O)(NC1CCCCC1Sc1ncccn1)c1ccc(Cl)cc1 (stereo not given)
    0.4% | -0.7% | 15.6% | 5.6 | 9.3 | -11.9% | -4.9
Cc1ccccc1C(=O)Nc1nc(=S)ss1
    1.2% | -3.7% | -14.6% | -1.1 | 8.8 | 22.4µM* | 7.4
CN(CCc1ccccn1)C(=O)CC1C(=O)NCCN1Cc1cccc(F)c1 (stereo not given)
    -11.1% | -17.9% | 5.3% | x | 0.9 | -5.1% | -4.8
COc1cccc(NC(=O)C2CCN(S(=O)(=O)c3ccc4c(c3)NC(=O)C(C)S4)CC2)c1 (stereo not given)
    -25.4% | x | 29.3% | x | -1.8 | 18.0% | u
Cc1sc2nnn(CC(=O)N3CCN(C(=O)c4ccco4)CC3)c(=O)c2c1C
    -5.1% | -3.9% | u | x | -2.5 | x | x
O=C(CN1CCOCC1)Nc1ccc2c(c1)CCC2
    -0.8% | -0.2% | 8.1% | 3.3 | 10.3 | 27.1% | 1.1
Cc1ccccc1OCC(=O)OCC(=O)Nc1ccc2c(c1)OCO2
    11.4% | 0.8% | -22.8% | x | 5.7 | x | x
Cn1c(C(=O)NCCN2CCN(c3ccccc3F)CC2)cc2c(=O)n(C)c3ccccc3c21
    3.7% | -16.7% | u | 4.7 | -12.6 | 0.1% | 4.9
CC(=O)Oc1ccccc1C1=NN(C(C)=O)C(c2ccccc2)C1 (stereo not given)
    -17.3% | -8.8% | -0.1% | 3.2 | 1.5 | 5.4% | -9.4
Cc1ccc2nc(NC(=O)Cc3cccs3)sc2c1
    -10.7% | -0.1% | -67.5%[inhibitor] | 0.7 | -2.0 | -11.4% | -4.2
CCOC(=O)c1sc(NC(=O)CSc2nnnn2-c2ccc(C)cc2)c(C(=O)OCC)c1C
    -3.7% | -5.9% | -10.5% | 7.9 | 3.5 | 9.4% | 1.5
CCCCN(C(=O)NC(=O)Nc1ccc(C)cn1)S(C)(=O)=O
    -14.1% | 4.2% | 10.7% | -0.7 | x | 12.0% | -2.5
O=C(COc1ccc2c(c1)oc(=O)c1ccccc12)NCCN1CCOCC1
    10.2% | 4.3% | 16.8% | -2.4 | -11.7 | -7.2% | -6.2
CC1CCN(C(=O)CNC(=O)c2cccc(OC(F)F)c2)CC1
    -1.2% | -0.3% | 14.5% | -1.6 | x | 6.6% | -0.7
COc1ccc(C(=O)Nc2cc(OCc3ccccc3)c(Cl)cc2Cl)cc1
    -11.7% | u | -35.8%[inhibitor] | 1.1 | -4.2 | 6.8% | 8.9
CCc1nnc(NS(=O)(=O)c2ccc(N/C=C/C(=O)c3ccc(OC)cc3)cc2)s1
    u | -7.0% | u | 4.9 | -23.1 | 9.2% | 14.0
CCOc1ccc(NC(=O)NNC(=O)c2ccc(Cl)cc2Cl)cc1
    3.2% | 1.0% | -1.3% | -0.5 | 8.8 | 25.4% | 5.6
CCc1ccc(NC(=O)C2CCCN2c2nn3c(=O)cc(C)nc3s2)cc1 (stereo not given)
    0.1% | 1.1% | u | 7.8 | 0.0 | 31.2%[activator] | -12.6
CN(C)c1nc(N(C)C)nc(N(C#N)CN2C(=O)c3ccccc3S2(=O)=O)n1
    -11.7% | 0.4% | 5.6%[15.4 µM] | 1.2 | -0.5 | -1.0% | 9.3
CCOC(=O)c1cc(CC)sc1/N=C/C1C(=O)CC(C)(C)CC1=O
    38.2%[activator] | 6.1% | -13.0%[15.4 µM] | 1.4 | 14.8 | 7.6% | -4.8
Cc1cc(C)nc(N2CCCC(C(=O)NCc3ccccc3F)C2)n1 (stereo not given)
    -5.9% | -21.4% | u | 4.4 | -2.1 | 5.1% | 9.0
Cc1ccccc1C1c2[nH]c3ccccc3c2C[C@H]2C(=O)N(C3CCN(Cc4ccccc4)CC3)CC(=O)N12 (stereo not given in full)
    x | x | x | 8.6 | x | 9.9% | 8.0
COc1ccc(Cl)cc1C(=O)NCC(c1ccco1)N(C)C (stereo not given)
    9.5% | x | -2.9%[15.4 µM] | -1.0 | 8.7 | 8.1% | 10.9
CCN(C(=O)CSc1nc2ccccc2c(=O)n1-c1ccccc1F)C1CCS(=O)(=O)C1 (stereo not given)
    -6.3% | -6.8% | -13.1% | x | x | x | x
CCCC(C(=O)NCC1CCCO1)N(Cc1ccco1)C(=O)CNS(=O)(=O)c1ccccc1 (stereo not given)
    8.5% | 25.1µM* | -1.0% | 3.9 | 0.9 | 8.0% | -8.9
O=C(NCc1ccco1)c1cc2c(s1)CSC2
    -11.9% | -14.5% | -35.6% | 9.1 | 0.1 | -78.0% | 1.8
O=C(NN=Cc1ccccc1)c1ccccc1
    5.3% | x | -27.7% | x | 0.9 | x | x
Cc1cccc(N2C(=O)C3C4C=CC(CC4)C3C2=O)c1 (stereo not given)
    15.7% | 1.5% | -2.3% | -1.2 | x | 15.8% | -6.2
O=S(=O)(NCC1CCCO1)c1cccc2nsnc12 (stereo not given)
    9.6% | 0.9% | 17.3% | -2.0 | 11.9 | -3.7% | 8.5
C[C@H](CO)N1C[C@H](C)[C@@H](CN(C)Cc2ccc3c(c2)OCCO3)OCc2cnnn2CCCC1=O
    x | 0.0% | -58.8% | x | 3.4 | x | x
Cc1c(Cl)cccc1NC(=O)CCC(=O)NNC(=O)c1ccccc1Cl
    4.5% | -0.2% | -9.1% | 0.3 | 2.7 | 20.6% | 19.4
Cc1cnc(C(=O)OCC(=O)NC(C)c2ccccc2)cn1 (stereo not given)
    13.4% | 1.9% | -8.8% | x | 3.1 | x | x
CC(=O)N1CCN(S(=O)(=O)c2cccc(C(=O)Nc3nccs3)c2)CC1
    -2.1% | -1.9% | -33.6% | -0.1 | x | 8.4% | -6.8
Cc1ccc2c(=O)cc(C(F)F)oc2c1
    -0.7% | -9.6% | 1.5% | 4.6 | -4.3 | -18.0% | 4.4
CC12CN(S(=O)(=O)c3ccccc3)CC(C)(CN(S(=O)(=O)c3ccccc3)C1)C2
    2.5% | -3.2% | 4.1% | -1.2 | -7.4 | 10.5% | -15.7
Cc1ccccc1/C=C/c1cccc[n+]1C
    3.9% | -4.7% | -67.5%[inhibitor] | -2.5 | x | 5.8% | -6.6
CCN(CC(=O)NC(C)(C)C)Cc1cc(=O)n2c(-c3ccccc3)csc2n1
    -4.3% | x | 11.2%[15.4 µM] | 2.4 | 1.9 | 4.2% | -11.1
Oc1c(Cl)cc(Cl)cc1/C=N/c1nc(-c2ccc(Cl)cc2)cs1
    u | -4.3% | -0.6% | 22.7 | x | 22.6% | -21.0
O=C(c1ccco1)N1CCN(S(=O)(=O)c2cccc3nsnc23)CC1
    9.4% | 0.2% | u | 0.5 | -0.9 | 0.3% | 2.1
O=C1CCCC/C1=C/NCc1ccc(F)cc1
    9.9% | -3.6% | -40.9%[inhibitor] | 0.4 | x | 11.4% | -1.6
COc1ccc(-n2c(=O)c(CCC(=O)N3CCN(c4cccc(OC)c4)CC3)nc3ccccc32)cc1
    x | 1.5% | -43.0%[inhibitor] | x | 5.6 | x | x
COCCCn1c(=S)[nH]c(C)c(C)c1=O
    8.8% | x | -4.0%[15.4 µM] | 2.0 | -1.7 | u | -0.6
O=C(Nc1ccccc1-c1ccccc1)c1ccccc1[N+](=O)[O-]
    0.5% | -4.1% | -31.1% | -4.2 | -6.2 | 20.7% | 0.8
O=C(CCN1C(=O)c2ccccc2C1=O)Nc1ccc(S(=O)(=O)N2CCOCC2)cc1
    -3.3% | -0.1% | 28.0% | 4.0 | -2.2 | 15.1% | 4.4
Cc1csc(SCC(=O)Nc2ccc(C)c(S(=O)(=O)N(C)C)c2)n1
    x | -0.3% | -20.6% | x | 4.6 | x | x
COc1cc(/C=N/NC(=O)CCc2ccccc2)ccc1O
    5.1% | 0.0% | -19.0% | -0.9 | -17.1 | 8.6% | -0.4
COc1cc(CNc2nnnn2C)ccc1OCc1c(F)cccc1Cl
    -10.6% | -0.5% | u | 4.7 | -6.7 | 10.9% | -7.3
Cc1ccnc(NC(=O)CCNC(=O)c2ccc(Cl)cc2)c1
    7.9% | 1.5% | u | x | 0.8 | u | -18.7
CCSc1cc(C)nc2c(-c3ccccc3)cnn12
    u | 2.9% | -24.8% | -2.1 | x | 15.8% | 15.7
